CSC inhib: blocks cancer stem cells; cancer stem cell-like cells viability, luminescence; 300,000 tested, 1.1% active; inhibition, % at 7.5 µM;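 active = mean at 75% or more and at least half the replicates too; inconclusive = mean and replicates disagree; tested in HMLE shEcad cells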;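 note: 0% = median of negative and 100% = median of positive control wells; the first replicate is given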
Rce1 inhib: yeast Ras-converting enzyme inhibition. Q03530. yeast membranes, quenched prenylated peptide cleavage fluorescence. calls only. 290,000 tested, 0.27% active. AID 2563;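 active = fall in fluorescence gain of 50% or more versus controls, with final raw signal at or below 3038400; inconclusive = same 50% fall but final raw signal above 3038400; inactive = fall in fluorescence gain under 50%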;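 note: plate controls were neutral control wells for no effect and wells lacking membranes for full effect; tested at 10 µM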
eIF4H FP inh: inhibitors of RNA binding by human eIF4H; AID 2012; Q15056; eIF4H fluorescence polarization binding assay; 290,000 tested, 0.94% active; inhibition, % at 35 µM;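 active = 50% or more with normal probe brightness, or confirmed in later tests; inconclusive = above 50% with abnormal brightness, or retests that disagree; inactive = below 50% or failed in later tests; about a fifth of its hits are not listed in these tables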;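 note: calls also rest on retests at 20 µM and on dose response follow-up; 0% = protein and probe with vehicle and 100% = probe without protein; strong numbers were not always called active; many hits fall short of the cut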
HIV Env fusion: inhibitors of HIV Env-mediated cell fusion | HeLa-JRFL Env/CEM21 cell fusion, luciferase | inhibition, % at 12.3 µM | 360,000 tested, 1.1% active | AID 651610;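 active = mean replicate inhibition score of at least 50 and every replicate individually at or above 50; inconclusive = only one of the two criteria met; inactive = mean below 50 and not all replicates reaching 50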;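 note: 0% = plate neutral controls and 100% = maraviroc near 300 nM; one replicate is shown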
MT1-MMP act inh: MT1-MMP (human) activation inhibition | HT1080 RFP-PRO-GFP cells, GFP/RFP ratio fluorescence, overnight; percent of plate control window, DMSO zero | GFP/RFP ratio change, % at 20 µM | 360,000 tested, 0.061% active;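 active = GFP/RFP ratio change of at least 30% with cell ATP level not reduced by more than half and red fluorescence within 50% of control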; note: strong numbers were not always called active
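Assay system: RFP-PRO-GFP reporter HT1080 cells; read-out basis: GFP/RFP fluorescence ratio; benchmarks: DMSO wells and RFP-L50D-GFP cells; doses: 20 µM single dose, 1% DMSO; schedule: overnight cell settling, then overnight compound exposure, 37 °C, 5% CO2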
Yeast UUG start: modulators of start codon recognition fidelity in yeast; 350,000 tested, 0.13% active; activity score, % at 18.7 µM; S. cerevisiae UUG-firefly luciferase reporter, luminescence/redox ratio; AID 602363;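 active = replicate mean at a twofold rise or more, about +100% in these data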;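 note: firefly luciferase made from a UUG start codon reports start codon fidelity; reporter light over untreated wells divided by growth signal over untreated wells; some hits fall short of that in this replicate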
PABP FP inh: PABP-poly(A) binding inhibition; P11940; PABP-poly(A) RNA binding, fluorescence polarization; inhibition, % at 35 µM; 290,000 tested, 1% active;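 active = 50% or more with normal probe brightness, or confirmed in later tests; inconclusive = above 50% with abnormal brightness, or retests that disagree; inactive = below 50% or failed in later tests; about a fifth of its hits are not listed in these tables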;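 note: calls also rest on retests at 20 µM and on dose response follow-up; controls were probe without protein and protein plus probe with vehicle; some compounds called inactive have numbers as strong as hits; many hits fall short of the cut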
Target sequence (P11940 whole entry, looked up): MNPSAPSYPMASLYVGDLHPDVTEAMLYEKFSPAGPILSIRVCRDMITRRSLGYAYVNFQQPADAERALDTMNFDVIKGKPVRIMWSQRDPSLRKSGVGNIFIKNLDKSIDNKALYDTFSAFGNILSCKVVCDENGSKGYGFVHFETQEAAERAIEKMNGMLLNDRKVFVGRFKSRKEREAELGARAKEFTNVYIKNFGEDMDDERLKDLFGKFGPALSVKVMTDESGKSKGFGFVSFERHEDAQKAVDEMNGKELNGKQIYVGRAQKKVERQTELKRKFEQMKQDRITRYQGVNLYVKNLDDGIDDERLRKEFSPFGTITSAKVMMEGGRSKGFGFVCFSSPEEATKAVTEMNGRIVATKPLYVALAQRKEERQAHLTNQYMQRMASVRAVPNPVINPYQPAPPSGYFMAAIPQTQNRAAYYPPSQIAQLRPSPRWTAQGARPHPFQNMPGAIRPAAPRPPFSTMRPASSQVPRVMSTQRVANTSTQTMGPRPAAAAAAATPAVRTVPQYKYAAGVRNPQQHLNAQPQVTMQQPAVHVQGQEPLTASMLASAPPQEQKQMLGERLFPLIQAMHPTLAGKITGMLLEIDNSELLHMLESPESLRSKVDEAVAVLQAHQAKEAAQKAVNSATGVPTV
eIF4H FP inh retest: further read-out of eIF4H FP inh, marked with its call; inhibition, %; compound at 20 µM; confirmation average;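 mean of two retest wells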
PABP FP inh retest: recorded beside PABP FP inh, whose call it bears; inhibition, %; compound at 20 µM; confirmation repeats;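 mean of two retest wells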
MT1-MMP act inh RFP: recorded beside MT1-MMP act inh, whose call it bears; RFP signal change, %; measured here: RFP expression control read;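 0 = vehicle wells; hits needed this value within 50% of zero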
* = called active by the depositor; i = inactive; ? = inconclusive; · = no result given. A portion of the library; count on the stated rates, not on these rows.

SMILES | CSC inhib | Rce1 inhib | eIF4H FP inh | HIV Env fusion | MT1-MMP act inh | MT1-MMP act inh RFP | Yeast UUG start | PABP FP inh | others
COc1cc(CCC(=O)OCc2nnc(-c3ccccc3)o2)cc(OC)c1OC | 1 | i | -1 | · | -3 | -1 | -2 | -13
COCCN(C(=O)CSc1nn(-c2ccc(F)cc2)c(=S)s1)c1c(N)n(CC(C)C)c(=O)[nH]c1=O | -7 | i | · | -2 | -3 | -4 | -6 | ·
CC(C)(C)C(=O)Nc1ccccc1-c1nc2ccccc2[nH]c1=O | -8 | i | -1 | -21 | -5 | -3 | -6 | -6
Cc1ccc2[nH]c(C(=O)N3CCCC(Nc4ccc(F)cc4)C3)cc2c1 (stereo not given) | -5 | i | 8 | 6 | -1 | -3 | -7 | 4
Cc1cc(Nc2ccccc2)n(CCO)n1 | -3 | i | -5 | 5 | · | · | -18 | 8
O=C(c1cc2ccccc2o1)c1cccs1 | -11 | i | 2 | -249 | 1 | -1 | -7 | 6
COc1ccc(CC(=O)Nc2nncs2)cc1OC | -9 | i | -3 | · | 3 | 0 | -15 | -7
COc1ccc(NC(=O)Cn2nnc(C(=O)NCc3ccc4c(c3)OCO4)c2N)c(OC)c1 | -2 | i | 3 | -6 | 1 | -1 | -22 | 5
CCc1c(C)nc(SCC(=O)N2CCCCC2)[nH]c1=O | -3 | i | -4 | -19 | -1 | 3 | -3 | -4
CN(Cc1ccon1)C(=O)C1CCN(C2CCN(CCCc3ccccc3)CC2)CC1 | -3 | i | 4 | 20 | 2 | 0 | -16 | -7
CN(Cc1ccccc1OCCO)CC1CCCN(CCc2ccc(Cl)cc2)C1 (stereo not given) | 18 | i | 69 | 15 | 6 | 4 | -2 | 20 | eIF4H FP inh retest=-1;PABP FP inh retest=32
Cn1nnnc1SCC(=O)c1ccc2c(c1)OCCO2 | 6 | i | -13 | -1 | -3 | 3 | -16 | -3
CN(CC(=O)Nc1ccc(Cl)c(C(F)(F)F)c1)C(=O)COc1cccc2cccnc12 | · | · | · | 10 | 1 | 2 | -6 | ·
CCCCOc1nc(N)nc(-c2ccccc2)n1 | -17 | i | -5 | -98 | 17 | 3 | -8 | -4
CCCCCOC(=O)c1c(N)n(CCOC)c2nc3ccccc3nc12 | 21 | i | -1 | 11 | -2 | 4 | -10 | -7
C=CCn1c(=O)c(C(=O)OCC)c(O)c2ccccc21 | -4 | · | -9 | -2 | 1 | 9 | · | 2
C#CCNC(=O)C1=C[C@@H](C)[C@H](CCCO)[C@@H](OCC)O1 | 2 | i | · | -5 | 5 | 0 | 0 | ·
Cc1cc(OC(C)C(=O)NCC2CCC(C(=O)O)CC2)c2c(C)c(Cc3ccccc3)c(=O)oc2c1 (stereo not given) | -6 | i | -1 | · | 14 | 1 | -13 | 3
CCC1CCCCN1CCCNC(=O)CC1Oc2ccccc2NC1=O (stereo not given) | -3 | i | 4 | -14 | -2 | 7 | -11 | 11
CC(O)(c1cccs1)C(C(=O)O)c1ccccc1 (stereo not given) | · | · | · | 6 | 0 | 0 | -32 | ·
COC(=O)c1cccnc1N1CCN(c2ccccc2F)CC1 | -13 | · | -8 | -24 | -4 | 0 | -6 | -3
O=P(c1ccccc1)(c1ccccc1)N(c1ccccc1)c1ccccc1 | -5 | i | -5 | ? | -8 | -1 | -5 | 1
Cn1nc(C(=O)N2CCC(C(N)=O)CC2)c2c1-c1ccccc1SC2 | 3 | i | -2 | -5 | 1 | 5 | 1 | -14
COc1cccc(/C=N/Nc2cc(N3CCOCC3)ncn2)c1O | 66 | i | 3 | 15 | -9 | -10 | -22 | 6
C/C=C(\C)C(=O)N1CCC(C(=O)c2ccccc2)CC1 | · | i | -4 | 1 | -7 | -6 | -5 | 12
CCOCCCNC(=S)NCCc1ccccc1 | · | i | -2 | 11 | 1 | 6 | · | -16
COc1ccc(SC[C@H](C)CN2CC[C@H](C)CCC2=O)cc1 | -11 | · | · | -3 | 5 | -4 | 1 | ·
CC(=O)c1nc(N2C(=O)CC(Cc3ccccc3)C2=O)sc1C (stereo not given) | 1 | i | 1 | -1 | -4 | 0 | -31 | -12
CCC1Oc2ccccc2N(CC(=O)NCCN2CCc3ccccc3C2)C1=O (stereo not given) | -12 | i | -16 | · | 1 | -3 | -2 | -1
COc1cc(CN2CCC(n3nccc3NC(=O)CCCc3ccccc3)CC2)ccc1O | -3 | i | -6 | -1 | -1 | -3 | -9 | -8
CC(C)C[C@H](NC(=O)N1CCn2c1nc1ccccc12)C(=O)N[C@H](Cc1ccccc1)C(=O)O | 7 | i | -9 | · | 0 | 0 | -3 | 5
c1ccc(-c2oc3ncnc(NCCN4CCOCC4)c3c2-c2ccccc2)cc1 | -9 | i | 2 | · | -3 | -6 | 12 | 11
O=C(CN1C(=O)C2C3CCC(C3)C2C1=O)NCc1ccco1 (stereo not given) | 2 | i | 1 | 10 | 7 | 3 | · | -6
CN1C(=O)c2ccc(NC(=O)c3cccc(N4C(=O)CCC4=O)c3)cc2C1=O | 9 | i | 0 | 11 | 2 | 3 | · | -12
Cc1cc(O)c(NC(=O)c2ccc(C)c([N+](=O)[O-])c2)cc1C | -2 | i | -1 | -19 | 7 | 2 | · | -10
CC1CCCC(=NNC(=O)C2COc3ccccc3O2)C1 (stereo not given) | -17 | · | · | -14 | -3 | 2 | -13 | ·
COc1ccccc1-n1nnnc1SCC(=O)NC1CCCC1 | -14 | i | 0 | · | 3 | 6 | -5 | 7
COc1cc(NC(=O)N2CCOCC2)cc(OC)c1 | 9 | i | 1 | · | 0 | -2 | -15 | -5
CC(Nc1cccc(C(=O)NC2CC2)c1)c1nnc(-c2ccccc2)o1 (stereo not given) | -6 | · | · | -6 | 4 | -5 | -3 | ·
N#Cc1cccc(NC(=O)CCC2CCCC2)c1 | · | i | 4 | · | 3 | 5 | -12 | 4
Cc1ccccc1C(=O)O/N=C(\N)Cc1cccs1 | -4 | i | -5 | -23 | -3 | -5 | -50 | 0
O=C(c1cccc(-c2nnc(-c3ccccc3)o2)c1)N1CCCCCC1 | -11 | i | -3 | -6 | 3 | -2 | -9 | 0
O=[N+]([O-])c1cccc(-c2nnc(C3CC3)o2)c1 | 0 | i | 5 | 6 | · | · | · | 4
CC(CCc1ccccc1)NC(=O)CSc1nc(N)cc(N)n1 (stereo not given) | 12 | i | 1 | -97 | 1 | 2 | -18 | 5
O=C(Cc1nnc(NC(=O)Nc2ccccc2)s1)Nc1ccccc1 | -8 | i | -4 | -1 | 2 | -1 | -15 | 8
Cc1ccccc1CN1C2=NCCCN2c2ccccc21 | -6 | i | 9 | 0 | -4 | 2 | -19 | 6
Cc1cnc(C(=O)NCC(=O)Nc2ccccc2Br)cn1 | · | · | · | -11 | -5 | 5 | -15 | ·
O=C(COC(=O)C1CCC(=O)N1)Nc1ccc(Oc2ccccc2)cc1 (stereo not given) | -11 | i | 4 | 9 | 5 | 5 | -10 | -1
C=CCNc1nc(NCc2ccccc2)c(C#N)c2c1CN(C)CC2 | -11 | i | ? | 21 | -9 | 8 | -18 | ?
Cc1nc2nc(-c3ccco3)nn2c(C)c1Cl | -14 | i | -1 | · | -5 | 2 | 6 | 0
CC(C)=C(C#N)c1nc2ccccc2s1 | -4 | i | 2 | · | 41 | 79 | -20 | 5
CC(=O)c1cccc(S(=O)(=O)NC(C)C2CC3CCC2C3)c1 (stereo not given) | -2 | · | 2 | 26 | -1 | -5 | 6 | 3
Cc1nc2nc(C)c(NS(=O)(=O)c3ccc(Cl)s3)c(=O)n2[nH]1 | 2 | · | -2 | 6 | -3 | 2 | -12 | 1
COc1ccc(S(=O)(=O)NCCCN2CCOCC2)cc1F | -28 | i | -4 | -8 | 1 | 7 | -14 | -6
CCOc1ccc(C(=O)C(c2ccccc2)N2CCOCC2)cc1 (stereo not given) | -3 | i | -1 | · | -3 | 5 | -13 | 5
O=C(NC1CCS(=O)(=O)C1)c1cccc(S(=O)(=O)N2CCOCC2)c1 (stereo not given) | 11 | · | -4 | · | 8 | 4 | 3 | -3
Nc1ccc(Br)cc1C(NCC(=O)O)c1ccccc1 (stereo not given) | · | i | -5 | -19 | 5 | 4 | -31 | 5
CC(C)(C)C(=O)O/N=C(\N)c1ccc(-c2csnn2)cc1 | 2 | i | -10 | -44 | 2 | -8 | 7 | 4
CC(O)(c1ccccc1)c1nc(-c2ccc(S(C)(=O)=O)cc2)cs1 (stereo not given) | · | · | · | -11 | -3 | -6 | 5 | ·
CC(=O)Nc1ccc(C)cc1 | -13 | · | · | · | 0 | 1 | -4 | ·
(further entries)
SMILES | CSC inhib | Rce1 inhib | eIF4H FP inh | HIV Env fusion | MT1-MMP act inh | MT1-MMP act inh RFP | Yeast UUG start | PABP FP inh | others
CC(SCC(=O)Nc1ccccc1)c1nc2ccccc2c(=O)[nH]1 (stereo not given) | 5 | i | 2 | -5 | -3 | 4 | -21 | -3
CC(C)c1ccccc1NC(=O)COC(=O)c1ccc(Cl)c(S(=O)(=O)N2CCCCCC2)c1 | · | i | -2 | 23 | 0 | 2 | · | -2
CN(C)CCCNC(=O)C[C@H]1C[C@H](C(=O)N2CCCCC2)[C@@]2(CCc3ccccc3)c3[nH]c4ccc(Cl)cc4c3CCN2C1=O | · | · | · | -18 | -2 | 2 | -10 | ·
O=C1ON=C(c2ccccc2)/C1=C/c1cccnc1 | · | · | -1 | -6 | -5 | 4 | · | 61 | eIF4H FP inh retest=-6;PABP FP inh retest=-6
COc1ccc2c(c1)c(C(=O)N/N=C/c1cccc(O)c1)c(C)n2C | 6 | i | 6 | · | 0 | 2 | · | 27

By substructure, the entries above with an aryl methoxy group.
SMILES | CSC inhib | Rce1 inhib | eIF4H FP inh | HIV Env fusion | MT1-MMP act inh | MT1-MMP act inh RFP | Yeast UUG start | PABP FP inh | others
COc1cc(CCC(=O)OCc2nnc(-c3ccccc3)o2)cc(OC)c1OC | 1 | i | -1 | · | -3 | -1 | -2 | -13
COc1ccc(CC(=O)Nc2nncs2)cc1OC | -9 | i | -3 | · | 3 | 0 | -15 | -7
COc1ccc(NC(=O)Cn2nnc(C(=O)NCc3ccc4c(c3)OCO4)c2N)c(OC)c1 | -2 | i | 3 | -6 | 1 | -1 | -22 | 5
COc1cccc(/C=N/Nc2cc(N3CCOCC3)ncn2)c1O | 66 | i | 3 | 15 | -9 | -10 | -22 | 6
COc1ccc(SC[C@H](C)CN2CC[C@H](C)CCC2=O)cc1 | -11 | · | · | -3 | 5 | -4 | 1 | ·
COc1cc(CN2CCC(n3nccc3NC(=O)CCCc3ccccc3)CC2)ccc1O | -3 | i | -6 | -1 | -1 | -3 | -9 | -8
COc1ccccc1-n1nnnc1SCC(=O)NC1CCCC1 | -14 | i | 0 | · | 3 | 6 | -5 | 7
COc1cc(NC(=O)N2CCOCC2)cc(OC)c1 | 9 | i | 1 | · | 0 | -2 | -15 | -5
COc1ccc(S(=O)(=O)NCCCN2CCOCC2)cc1F | -28 | i | -4 | -8 | 1 | 7 | -14 | -6
COc1ccc2c(c1)c(C(=O)N/N=C/c1cccc(O)c1)c(C)n2C | 6 | i | 6 | · | 0 | 2 | · | 27

Compound activity from PubChem BioAssay.
